# Calb FLC: C. albicans growth modulation with fluconazole | C. albicans CaCi-2 (fluconazole-resistant clinical isolate) + fluconazole, Alamar Blue growth, 48 h | growth inhibition, % (concentration not given with the values) | 0.57% of 300,000 active;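 active = most replicates above 75%; inconclusive = exactly half above 75%; inactive = most below 75%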;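 note: all wells also contain fluconazole at 8 µg/ml as a sub-toxic cotreatment; 0% = median of DMSO wells and 100% = median of geldanamycin control wells; wells of about 8 µL received 7.5 nL stock; the first replicate is given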
# Beta2AR agonist: human beta-2 adrenergic receptor agonism by FAP; P07550; Am2.2-beta2AR cells, FAP receptor internalization, flow cytometry; reference of the scale not given here; response, % (test concentration not listed); 0.43% of 340,000 active; AID 504454;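 active = response above a set limit, near 3 SD of response in nonfluorescent compounds, cut at about 42% in these data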;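 note: stock transfer was 100 nL into about 11 µL; a reference agonist was the positive control; negative values mostly stem from fluorescent compounds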
# Target sequence (P07550 whole entry, looked up): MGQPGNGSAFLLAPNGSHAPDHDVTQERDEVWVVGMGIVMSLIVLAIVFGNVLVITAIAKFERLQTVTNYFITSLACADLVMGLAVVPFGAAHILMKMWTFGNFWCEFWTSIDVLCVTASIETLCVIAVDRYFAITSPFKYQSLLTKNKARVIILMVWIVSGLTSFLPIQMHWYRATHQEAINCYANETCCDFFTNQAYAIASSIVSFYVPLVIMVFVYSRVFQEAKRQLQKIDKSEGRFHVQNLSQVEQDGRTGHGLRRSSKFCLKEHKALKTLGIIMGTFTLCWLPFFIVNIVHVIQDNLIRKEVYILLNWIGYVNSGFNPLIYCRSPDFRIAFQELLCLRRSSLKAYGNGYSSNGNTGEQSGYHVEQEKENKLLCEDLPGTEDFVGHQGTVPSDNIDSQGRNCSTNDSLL
# LANA-H2A inh: blocks KSHV LANA binding to histone H2A/H2B; Q9QR71; cell-free LANA-H2A/H2B peptide, fluorescence polarization; inhibition, % (concentration not given with the values); 0.6% of 320,000 active; in the data active = inhibition mostly above about 10%, no sharp cut-off; inactive = mostly below about 6.7%;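 note: stock transfer was 7.5 nL into about 10 µL; 0% = median of vehicle wells and 100% = median of positive control wells; one replicate is shown; the record names a cut of 25% in any replicate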
# A1 inh: inhibitors of the anti-apoptotic protein A1, read as caspase activation; caspase activation, % (concentration not given with the values); MEF A1-2A-BIM cells, Caspase-Glo 3/7 luminescence, 3 h; percent of clofoctol response, vehicle zero; 0.066% of 330,000 active;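 active = over half of replicate activation scores above 10%, or exactly half above 10 with the replicate mean above 10; inconclusive = replicate mean below 10 yet half the replicates above 10; inactive = over half of replicates below 10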;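 note: wells of about 30 µL received 50 nL stock; many hits fall short of the cut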
# ALR H2O2 inh: inhibitors of human sulfhydryl oxidase ALR. 3.8% of 290,000 active. P55789. AID 485317. inhibition, % (test concentration not listed). purified ALR, DTT oxidation, H2O2 HRP-luminol luminescence;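 active = mean and each replicate at 75% or more; inconclusive = only one of the two met; inactive = neither met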;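 note: stock transfer was 7.5 nL into about 7.5 µL; 0% = neutral wells and 100% = wells with inactivated enzyme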
# Target sequence (P55789 whole entry, looked up): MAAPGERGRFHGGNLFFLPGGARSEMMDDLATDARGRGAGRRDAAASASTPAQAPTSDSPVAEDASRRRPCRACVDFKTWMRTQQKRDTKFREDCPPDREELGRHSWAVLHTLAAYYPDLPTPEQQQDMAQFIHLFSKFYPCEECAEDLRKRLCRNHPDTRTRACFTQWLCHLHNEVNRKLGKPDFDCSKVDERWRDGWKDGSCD
# Beta cell apopt: blocks beta cell apoptosis | INS-1E cytokine-induced death, ATP luminescence, 48 h; percent of positive-control rescue, neutral wells zero | protection from apoptosis, % (test concentration not listed) | 0.8% of 300,000 active;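 active = all replicates at 75% or more, or half of them and the mean; inconclusive = half reach 75% but not the mean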;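 note: 0% = cytokine-treated negative control wells and 100% = positive control rescue; higher means more ATP so stronger rescue from cytokine killing; wells of about 40 µL received 100 nL stock; the first replicate is given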
# Ecoli rRNA inh: inhibitors of bacterial rRNA selective over humanized ribosomes. E. coli WT GFP vs humanized-ribosome RFP mutants, fluorescence, 24 h; active compounds read low; DMSO median 0, no signal -100. GFP signal change (wild-type ribosome), % (concentration not given with the values). 1.6% of 350,000 active;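 active = significant combined selectivity score with lowered wild-type GFP, culture density cut under 30%, mutant RFP and density less affected; inactive = any of these conditions unmet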; note: one replicate is shown; some compounds called inactive have numbers as strong as hits
# T cruzi repl: T. cruzi replication inhibition; T. cruzi beta-gal in NIH3T3, luminescence, 90 h; inhibition, % (no concentration beside the values); 1.4% of 300,000 active; AID 1885;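 active = mean inhibition across valid replicates above about 55%, limit read from the data; inconclusive = mean below that limit but half or more replicates reach it; inactive = mean below it, under half of replicates reach it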;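 note: signal also drops with host cell toxicity which is not excluded here; 0% = plate median of DMSO wells and 100% = zero luminescence signal; higher percent means less beta-gal luminescence so fewer parasites; stock transfer was 50 nL into about 50 µL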
# Ecoli rRNA inh OD600: second read-out of Ecoli rRNA inh, no call of its own (marks repeat the call); OD600 change, %; measured here: OD600 growth;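 optical density of the mix in the first replicate; 0 = DMSO median and -100 = no signal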
# Ecoli rRNA inh RFP: second read-out of Ecoli rRNA inh, no call of its own (marks repeat the call); RFP signal change, %; measured here: RFP humanized mutant strains;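 first replicate; 0 = DMSO median and -100 = no signal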
# Numbers without * were called inactive; i = inactive; ? = inconclusive; / = no result given; & = joins results of further samples. Only part of the results is shown; the hit share may differ from the screen's.
# Values run as follows: Calb FLC	Beta2AR agonist	LANA-H2A inh	A1 inh	ALR H2O2 inh	Beta cell apopt	Ecoli rRNA inh	Ecoli rRNA inh OD600	Ecoli rRNA inh RFP	T cruzi repl
COc1ccc(NC(=O)C2CCCN(S(=O)(=O)c3cccc4nonc34)C2)c(OC)c1 (centres undefined)
    27	9	0.5	0.7	1	3	-4	-12	-7.8	5
CCOc1ccc(OCC)c(S(=O)(=O)NCc2cccnc2)c1
    -1	2	3.7	0.1	/	-5	/	/	/	12
Cc1cc(=O)oc2cc(NC(=O)CC3(CC(=O)O)CCCC3)ccc12
    -4	0	-3.7	-0.6	-5	-4	1	-2	-1.5	-10
CCCCOC(=O)c1ccc(NC(=O)c2ccc(F)cc2F)cc1
    -2	-4	0.3	-1.1	-1	/	/	/	/	-9
Cc1cc(C)c(S(C)(=O)=O)c(N(C)N)n1
    -2	-1	-2.9	0.4	-4	3	18	12	0.7	-1
N#C/C(=C\c1ccc(OCC(N)=O)cc1)S(=O)(=O)c1ccccc1
    -2	-4	4.3	0.0	/	-4	16	11	3.8	-13
CCOC(=O)C1=NN(C(=O)c2ccc(OC)cc2)C(O)(c2ccc(Cl)cc2)C1 (centres undefined)
    -7	26	4.6	0.6	14	0	-38	-54	-16	4
COc1ccc2nc(COC(=O)c3cccs3)c(C(C)=O)[n+]([O-])c2c1
    0	-4	-6.6	0.2	-3	-6	-3	7	0.0	-9
Cc1cccc(NC(=O)c2cc3c(=O)n4ccccc4nc3s2)c1
    14	-6	5.5	-3.8	-10	5	5	19	-2.5	-19
COc1ccc(CC(=O)c2ccc(O)cc2O)cc1OC
    -5	-4	-4.2	-0.5	/	4	/	/	/	-3
O=C(/C=C/c1ccccc1Cl)N(Cc1ccc(Cl)cc1)C1CCS(=O)(=O)C1 (centres undefined)
    -2	-6	0.2	0.3	-10	1	/	/	/	10
N#CCCNC(=O)Cn1c(COc2ccc(Cl)cc2)nc2ccccc21
    44	-20	-2.9	0.0	-7	-5	6	9	-2.3	11
COc1ccc(C(=O)Nc2ccccc2C(=O)N/N=C/c2cccc3ccccc23)cc1
    7	0	4.6	-7.8	-9	42	/	/	/	9
COc1ccc(C(=O)Nc2c(-c3cccs3)c(=O)c3ccccc3n2C)cc1
    -1	3	0.2	0.1	-5	2	15	-1	2.0	-2
CCc1nn(CC(=O)N2CC(C)CC(C)C2)c(=O)c2cccn12 (centres undefined)
    -8	0	-3.6	0.5	5	-4	4	6	-2.4	-13
CC(=O)Nc1ccc(S(=O)(=O)Nc2ccc(F)c([N+](=O)[O-])c2)cc1
    3	-8	-1.4	0.4	-4	-4	11	7	0.6	0
CC(=O)Nc1ccc(Nc2c3c4c(cccc4n(C)c2=O)C(=O)c2ccccc2-3)cc1
    -1	-16	22	0.1	5	1	6	9	0.4	35
COc1ccc(CC(=O)NCC2CCCN(Cc3ccc(OC)cc3F)C2)cc1 (centres undefined)
    1	-2	2.8	0.1	/	/	3	5	6.6	48
O=C(c1ccccc1)c1ncc(C(F)(F)F)cc1Cl
    -21	-4	1.3	0.3	-9	0	/	/	/	-7
CCn1c(SCC(=O)Nc2ccc(C(C)=O)cc2)nc2nc3c(cc2c1=O)COC(C)(C)C3
    -1	-8	1.6	0.1	69	-17	8	14	0.8	-12
Cc1cccc(NC(=O)NCc2ccc3c(c2)OCO3)c1
    -15	-2	-0.2	-4.1	-3	-6	0	9	4.1	3
CC(=O)Nc1ccc(NC(=O)C(C)OC(=O)c2ccc(OCc3c(C)noc3C)cc2)cc1 (centres undefined)
    -4	1	i	0.1	-6	0	/	/	/	14
COc1ccc2[nH]c3c(c2c1)[C@@H]1CCN2C(=O)CCC[C@H](C3)[C@H]12
    -2	-1	1.7	-0.7	17	-3	6	7	-5.4	-12
O=S(=O)(c1ccccc1)N1CC=C(c2ccccc2)CC1
    -13	6	/	0.3	2	-10	0	-7	-0.1	-3
CC1CC(=O)N(CC(=O)NCc2ccco2)c2ccccc2S1 (centres undefined)
    -15	-3	1.8	0.4	4	-4	/	/	/	-10
COc1ccc(NC(=O)C2CCN(S(=O)(=O)c3ccc(C)cc3)CC2)cc1OC
    6	6	-3.9	-0.1	0	3	/	/	/	-4
O=C(COc1cccc2ccccc12)N/N=C/c1ccccc1OCc1ccc(C(=O)O)cc1
    15	-3	-7.2	0.8	2	-6	18	15	1.1	-18
O=C1CC(NCCN2CCOCC2)C(=O)N1Cc1ccc(N2CCCC2=O)cc1 (centres undefined)
    -5	14	4.7	-1.0	-3	-2	/	/	/	4
Cc1onc(-c2ccccc2Cl)c1C(=O)Nc1ccccc1O
    0	4	12	0.0	27	0	4	-19	-5.0	-14
Cc1noc(C)c1CSc1nnc2ccc3ccccc3n12
    27	-10	-3.2	-0.3	-6	-5	-2	5	2.7	14
CC(C)(C)C(=O)N1c2ccccc2CCc2ccccc21
    27	4	3.2	-0.1	9	2	-26	-24	-12	11
CCn1c(-c2cc(OC)ccc2OC)csc1=Nc1c(C)n(C)n(-c2ccccc2)c1=O
    2	5	4.8	-1.4	14	1	/	/	/	14
Cc1ccc(-n2c(=O)c3sccc3n(CC(=O)NCc3ccco3)c2=O)cc1F
    1	1	1.5	-0.1	7	-13	/	/	/	-8
O=c1cc[nH]c2ccc(OC(F)(F)F)cc12
    -10	-5	-0.4	0.7	3	-5	7	4	-4.4	-2
O=C(Nc1ccc(S(=O)(=O)N2CCOCC2)cc1)c1ccc2c(c1)OCO2
    0	-11	1.3	-0.2	/	2	5	1	-1.1	1
CCn1nc(C(=O)NNC(=O)C(Cc2ccccc2)NC(N)=O)c2ccccc2c1=O (centres undefined)
    /	-3	3.9	0.2	-4	-3	23	25	5.4	/
Cc1cc(C)n(-c2nc3ccccc3nc2N2CCC(C)CC2)n1
    -4	3	1.9	-0.6	-3	-2	/	/	/	-2
CCOC(=O)Cc1csc(/N=C/c2c(O)n(-c3ccccc3C(F)(F)F)c(=O)c3ccccc23)n1
    -8	15	3.8	0.4	-1	-1	/	/	/	-11
FC(F)(F)c1cccc(OCC2CNC(=S)O2)c1 (centres undefined)
    -12	-9	3.0	0.0	6	-6	9	6	-4.9	-3
Cc1cc(C)cc(-n2nnnc2-c2cn(C)nc2C(F)(F)F)c1
    -1	2	4.5	0.1	-3	4	/	/	/	-7
CCC1CCCCN1CCCNC(=O)c1ccc(CS(=O)(=O)c2ccccc2OC)o1 (centres undefined)
    -9	-3	0.6	0.4	-7	4	2	4	-2.4	3
N#CCCCCn1c(-c2cncs2)nc2ccccc21
    1	-3	-1.3	-0.2	-12	6	/	/	/	-12
C=CCN1C(=O)C2C(C(=O)NCc3ccccc3)C3(C)C=CC2(O3)C1C(=O)NC(C)(C)C (centres undefined)
    0	-1	0.5	0.2	-11	-1	/	/	/	-18
C/C(=N\OCC(=O)Nn1c(=O)[nH]c2ccccc2c1=O)c1ccccc1
    21	4	0.7	-0.1	1	0	-5	-13	-8.8	-16
Cc1noc(C)c1CSCC(=O)N(C)CC(=O)Nc1ccccc1Br
    -12	-1	-0.2	-0.6	-15	-2	3	8	-1.1	-10
COc1ccc(C(=O)Nn2cnnc2)cc1
    0	-12	1.4	-0.1	-7	-7	/	/	/	-10
Cc1ccccc1NC(=O)NCc1ccccn1
    -3	-4	6.6	-0.1	-14	-5	20	0	0.6	/
COc1ccc(CC(=O)NC(C)c2ccc3ccccc3c2)cc1 (centres undefined)
    1	-3	-1.9	-0.3	/	/	-23*	-10*	0.6*	3
O=C(CSc1nc2scc(-c3ccco3)c2c(=O)n1-c1ccccc1)N1CCOCC1
    54	-5	1.7	0.1	-6	5	/	/	/	25
CCOC(=O)N1CCN(c2c(N3CCN(c4ccc(OC)cc4)CC3)c(=O)c2=O)CC1
    -1	-7	7.9	0.0	-7	0	6	6	3.3	0

# Next structures:
# Values run as follows: Calb FLC	Beta2AR agonist	LANA-H2A inh	A1 inh	ALR H2O2 inh	Beta cell apopt	Ecoli rRNA inh	Ecoli rRNA inh OD600	Ecoli rRNA inh RFP	T cruzi repl
CCOc1ccc(C(=O)CSCCC(=O)O)cc1
    -22	4	2.6	-1.0	98*	-2	6	10	2.6	-8
O=C(/C=C/c1cnc2ccccc2n1)NC1CCCCCC1
    56	0	1.9	-0.3	6	7	/	/	/	9
CCn1c(SCCC(C)C)nnc1-c1c[nH]c2ccccc12
    3	13	5.4	-0.9	0	-7	3	-29	1.9	18
Cc1nn(CC(=O)NCCc2ccc(Cl)cc2)c(=O)c2cccn12
    3	-3	-1.1	-0.9	-9	/	-1	-8	0.0	-6
COc1ccc(OCCCC(=O)ON=C(N)c2ccccc2Cl)cc1
    /	-8	-1.6	-0.1	-2	-6	-12	-8	0.5	/
Cc1cccc(NC(=S)NCCc2c[nH]c3ccccc23)c1
    -3	3	2.8	1.2	19	3	/	/	/	3
O=C(Cc1ccc(Cl)cc1)c1c[nH]c(C(=O)NCCCn2ccnc2)c1
    19	3	-4.0	-0.4	1	8	6	8	1.8	-4
Cc1cccc(C2c3[nH]c4ccccc4c3CCN2C(=O)CN2CCOC2=O)n1 (centres undefined)
    12	1	5.9	-0.1	-13	-1	-5	-7	-1.0	-4
CC(C(=O)Nc1nccs1)N1C(=O)c2ccccc2S1(=O)=O (centres undefined)
    10	0	-0.7	0.0	-6	-3	16	17	2.1	-3
O=C(c1nc2ccccn2c1CN1CCCC(OCc2ccccc2)C1)N1CCCC1 (centres undefined)
    ?	0	0.6	0.2	10	1	2	-5	-1.0	-4
COc1cc(NC(=O)Cn2ccsc2=N)cc(OC)c1
    1	-5	3.9	0.2	-3	1	6	-5	-3.7	7
COc1ccc(CNC(=O)CN(Cc2ccccc2)C(=O)CCC(=O)Nc2ccccn2)cc1
    -2	2	-6.8	0.4	1	-5	-2	3	0.1	10
Cc1ccc(Sc2ccc(C(=O)NC(C)C)cc2[N+](=O)[O-])cc1
    -13	0	4.3	-0.3	-12	8	/	/	/	10
C=CCNc1nc2c(c(=O)[nH]c(=O)n2C)n1CCCCC
    -1	0	8.6	0.3	0	0	5	14	-3.7	14
OC(CNCc1cccs1)c1ccccc1 (centres undefined)
    0	-11	-0.1	0.1	-6	-10	/	/	/	0
COc1ccc(CCN2CC(C(=O)NCCc3ccc(C(F)(F)F)cc3)CCC2=O)cc1 (centres undefined)
    1	22	/	/	-24	/	-5	-2	-4.1	1
C[C@H](CO)N1C[C@H](C)[C@@H](CN(C)C(=O)Nc2ccc3c(c2)OCO3)Oc2ccc(NC(=O)C3CCCCC3)cc2C1=O
    /	0	-4.7	-0.8	-9	5	-1&7	6&0	-3.5&0.4	/
O=C1COc2ccc(C(=O)COC(=O)c3ccco3)cc2N1
    6	1	0.2	-0.8	-7	-3	4	1	-3.0	-4
